Bead autofluor – counter-screen for toxin protease inhibitors: compound fluorescence; compound autofluorescence counterscreen, microsphere flow cytometry; stronger effect = higher value; fluorescence intensity (test concentration not listed); actives 3.1% (n = 360,000);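 active = at least 3 SD above the mean of all compounds, about 16000 in these data; inconclusive = too few beads counted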;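 note: 100 nL of 1 mM stock went into each well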
PrP 5UTR inh – inhibition of PrP 5' UTR reporter expression; cell-based PrP 5' UTR mRNA reporter, plate reader; inhibition, % (test concentration not listed); actives 0.35% (n = 340,000);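 active = every replicate at 50% or more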;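 note: 0 = median of the neutral control wells; tested in H4 reporter cells; numbers are from one replicate; inactives centre near -14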
Mtb hypoxia inh – inhibitors of hypoxia-regulated fluorescent reporter in Mycobacterium tuberculosis | M. tuberculosis hypoxia-regulated fluorescent reporter, fluorescence | fluorescence inhibition, % (concentration not given with the values) | AID 1159583 | actives 0.1% (n = 300,000);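 active = 35 to 45% if threefold the growth effect, above 45% if 1.5-fold the growth effect; inactive = the rest, general growth blockers included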;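 note: wells of about 50 µL received 100 nL stock; 0% = vehicle wells and 100% = reference inhibitor wells; whole bacteria with a GFP reporter of the hypoxia response; strong numbers were not always called active; many hits fall short of the cut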
BJeLR viability – BJeLR cell viability loss; actives 0.17% (n = 300,000); BJeLR (HRASV12) viability, CellTiter-Glo ATP luminescence, 48 h; reference of the scale not given here; inhibition, % (test concentration not listed); AID 1554;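 active = replicate mean above 50%; inconclusive = above 50% but judged a plate artefact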;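 note: 50 nL library stock added to about 25 µL; numbers are from one replicate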
Sa RN4220 lethal – S. aureus RN4220 growth inhibition; AID 1259311; OD600, 16 h; actives 0.33% (n = 330,000); inhibition, % (no concentration beside the values);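 active = z-score of -3 or lower and OD600 up to 0.18 on both plates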;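 note: plate controls were untreated cells for no effect and reference antibiotic for full effect; stock transfer was 100 nL into about 80 µL; one replicate is shown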
ugtP null kill – compounds lethal to S. aureus RN4220 ugtP deletion mutant; actives 0.54% (n = 330,000); OD600 growth, 16 h; some inactives read as strong as hits; growth inhibition, % (concentration not given with the values);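 active = z-score under -3 and OD600 up to 0.15 on both plates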;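 note: plate controls were untreated wells for no effect and antibiotic for full effect; wells of about 80 µL received 100 nL stock; the first replicate is given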
Mtb hypoxia inh growth – further read-out of Mtb hypoxia inh, marked with its call; growth inhibition, %; measured here: M. tuberculosis growth (absorbance);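 0% = vehicle and 100% = reference antibiotic; read after six days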
The depositor's hits bear a star; ? = inconclusive; nt = no result given.

SMILES	Bead autofluor	PrP 5UTR inh	Mtb hypoxia inh	Mtb hypoxia inh growth	BJeLR viability	Sa RN4220 lethal	ugtP null kill
CC(C)(C)c1ccc(C(=O)NCCc2ccccc2)cc1	3854	-2	-4	10	-4	-4.2	-2
Cc1ccc2cc(CCNC(=O)c3c(-c4ccccc4Cl)noc3C)c(=O)[nH]c2c1	5500	-17	6	5	-3	4.2	11
O=C(CCCn1c(SCC(=O)c2ccc(O)c(O)c2)nc2ccccc2c1=O)NCC1CCCO1 (configuration not stated)	23404*	-3	6	0	nt	6.3	-6
Cc1nc(NC(=O)c2cccnc2)ccc1Br	2013	-21	nt	nt	-5	5.4	-6
COc1cc(OC)cc(C(=O)OCn2nnc3ccccc3c2=O)c1	5755	-6	-8	10	7	12	8
COc1ccc(S(=O)(=O)NCC2CCCN(C(=O)CCC(F)(F)F)C2)cc1 (configuration not stated)	3330	9	-6	2	6	3.9	5
CS(=O)(=O)c1ccccc1C(=O)N1CCN(Cc2ccccc2)CC1	4610	-6	6	8	-5	-0.7	8
COc1ccc2c(c1)c1ncn(CCCN3CCOCC3)c(=O)c1n2C	10012	-29	2	-2	11	0.1	1
CN(C)C=NS(=O)(=O)c1ccc(Cl)cc1	nt	nt	-3	3	nt	0.2	0
CCc1ccccc1NC(=O)C1CCCN1S(=O)(=O)c1ccc2c(c1)n(C)c(=O)c(=O)n2C (configuration not stated)	5714	-26	9	1	10	4.8	2
Cc1cccc(OCc2n[nH]c(=S)o2)c1C	2788	-66	-11	10	8	8.1	-9
CCOc1ccc(N2CC(C(=O)OCC(=O)NCc3ccccc3)CC2=O)cc1 (configuration not stated)	9326	-24	4	15	-5	0.9	7
COc1ccc(C(=O)NCCCCc2ccccc2)cc1	5321	nt	10	-1	-12	-0.8	6
COc1ccccc1C(=O)COC(=O)COc1cccc2c1OC(C)(C)C2	5542	-13	9	3	-6	0.0	5
C[C@]12CC[C@@H]3c4ccc(O)c(O)c4CC[C@H]3[C@@H]1CC[C@@H]2O	5786	-19	nt	nt	5	nt	nt
Cc1csc2nc(CCNS(=O)(=O)c3ccc4c(c3)OCCO4)cn12	5880	-25	4	5	5	-6.2	-1
O=C(NCCn1ccc2ccccc21)c1ccc2c(c1)OCO2	6185	-31	9	6	0	-4.0	3
Cc1nn(-c2ccccc2)c(N)c1C1(O)C(=O)N(C)c2ccccc21 (configuration not stated)	1926	-24	7	5	7	9.6	0
O=C(NNC(=O)C1CC=CCC1)c1cccc(Br)c1 (configuration not stated)	3524	-20	-2	9	-3	3.8	3
COc1ccccc1COCC(O)CN1CCN(S(=O)(=O)c2cccc(F)c2)CC1 (configuration not stated)	3312	-12	7	2	nt	2.9	7
Cn1c(=O)cc(OCC(=O)N2CCN(c3cccc(C(F)(F)F)c3)CC2)c2ccccc21	20645*	6	-5	3	-13	2.9	0
Cn1c(-c2ccc(F)cc2)cnc1NCc1cccc([N+](=O)[O-])c1	nt	-22	11	5	8	2.2	3
COc1ccc(C(=O)C2CCCN(C(=O)c3cc4nc(C)cc(C)n4n3)C2)cc1F (configuration not stated)	4264	-37	-13	2	-1	-1.2	-1
CCOC(=O)C1=C(C)NC(C)=C(C(=O)OCC)C1C(=O)OCC(=O)c1ccc2c(c1)OCCO2	3672	-24	3	6	2	0.2	-10
CN=C(Nc1ccccc1)SC1CC(=O)N(c2cccc(OC)c2)C1=O (configuration not stated)	3496	-10	0	1	-8	-2.5	8
CCc1ccc(-c2cc(C)no2)cc1S(=O)(=O)NCc1ccco1	4989	-9	1	1	7	5.8	1
Cc1cccc(NC(=O)c2nc[nH]c2C(=O)N[C@@H](CCCCNC(=O)OC(C)(C)C)C(=O)OC(C)(C)C)c1	4170	-13	nt	nt	-14	nt	nt
Cc1ccccc1CCN(C(=O)CN1C(=O)c2ccccc2S1(=O)=O)C(C(=O)NCC1CCCO1)c1ccncc1 (configuration not stated)	10559	-31	-7	-10	2	3.0	3
Cc1ccc(-c2nn(C)c(=O)c3ccccc23)cc1CO	2307	-13	1	5	-7	4.9	1
CC[C@H]1OC(=O)[C@H](C)[C@@H](O[C@H]2C[C@@](C)(OC)[C@@H](O)[C@H](C)O2)[C@H](C)[C@@H](O[C@@H]2O[C@H](C)C[C@H](N(C)C)[C@H]2O)[C@](C)(O)C[C@@H](C)[C@@H]2N[C@@H](COCCOC)O[C@H]([C@H]2C)[C@]1(C)O	5990	-8	nt	nt	1	nt	nt
CC12CCC(C(=O)N(NC(=O)c3cccnc3)C1=O)C2(C)C (configuration not stated)	2613	-4	21	-4	4	-0.3	2
Cn1c(=O)[nH]c(=O)c2c1nc(NCCCO)n2Cc1ccc(F)cc1	2769	-8	-1	0	-7	0.7	-1
COc1ccc(C(C(=O)NC(C)(C)C)N(C(=O)CNC(=O)c2cccs2)c2ccc(C)cc2)cc1OC (configuration not stated)	5982	-11	9	21	4	1.0	1
COCCOc1cc(NC(=O)CS(=O)CC(=O)N(C)C)c(Cl)cc1Cl (configuration not stated)	4407	-13	-9	5	0	-1.5	-2
CCN(CC)c1ccc(/C=N/NC(=O)c2nnn(-c3nonc3N)c2-c2ccc(C)cc2)cc1	5097	-4	nt	nt	-13	nt	nt
Cn1c(CCC(=O)OCC(=O)NCc2ccc3c(c2)OCO3)nc(=O)c2ccccc21	4423	-17	9	2	-4	4.0	0
CC(C(=O)Nc1cccnc1)C1Sc2ccccc2NC1=O (configuration not stated)	4529	-12	13	14	0	1.8	5
c1ccc(COc2cccc(CN3CCCCC3)c2)cc1	3051	-8	1	1	-11	-0.1	5
COc1ccc(NC(=O)[C@@H]2CC=C[C@@H]3CCN(Cc4ccccc4)C(=O)[C@@H]32)cc1	3864	1	nt	nt	3	nt	nt
CC(C)Cn1c(=O)c(C(=O)NCc2ccc3c(c2)OCO3)c(O)c2ccccc21	3983	-11	16	6	-8	2.3	33
c1cnn(Cc2cnc(N3CCOCC3)s2)c1	4598	2	0	3	5	0.2	8
Cc1cc(C)c(NC(=O)c2cnn(C)c2)c(C)c1	2716	-4	nt	nt	-1	nt	nt
CCOc1ccccc1N(C)S(=O)(=O)c1ccc2[nH]cc(C(=O)N(CCOC)CCOC)c(=O)c2c1	3666	-16	4	8	8	1.3	19
O=C(COC(=O)c1ccc([N+](=O)[O-])cc1Cl)NC(=O)c1ccccc1	5411	12	7	9	6	-4.6	-1
CC(CCN1CCc2nc(-c3ccccc3)c(-c3ccccc3)cc2C1)=NOC(C)c1cn(C(CO)Cc2ccccc2)nn1 (configuration not stated)	nt	nt	3	-4	nt	2.8	-1
Cc1cc(C(F)(F)F)nn1CC(=O)NNC(=S)Nc1ccc(F)cc1	11232	-29	-4	2	5	-0.1	-3
CC(=O)Nc1ccc(NC(=O)c2cc(=O)c3ccccc3o2)cc1	5241	-16	5	8	-13	2.4	-4
COc1cccc(CN2CC(C(=O)N(C)C3CCOCC3)CCC2=O)c1 (configuration not stated)	?	6	-2	10	-1	-0.4	2
O=C(CCCN1CCC(C(=O)c2ccc(F)cc2)CC1)c1ccc(F)cc1	4973	-18	-5	5	4	2.6	5
CC(C)c1ccccc1NC(=S)N(C)C	nt	-10	6	-5	0	-0.7	5
COc1ccccc1Nc1nc(-c2cccc(N3C(=O)c4ccccc4C3=O)c2)cs1	2357	-10	8	11	6	9.1	13
O=C(O)c1cccc(-c2ccc(C=NNC(=O)C3COc4ccccc4O3)o2)c1 (configuration not stated)	nt	nt	-7	-13	nt	4.6	2
Cc1ccc(CSc2nc3ccsc3c(=O)n2Cc2ccccn2)cc1	8605	-28	0	4	5	-9.8	87*
O=C(NC(Nc1nc2ccc([N+](=O)[O-])cc2s1)(C(F)(F)F)C(F)(F)F)c1ccccc1	3158	47	23	23	77*	100*	100*
O=C(Cn1cccc1C(=O)c1ccccc1)NCCN1CCOCC1	2533	-18	4	12	-2	1.3	-5
COC(=O)C1=C(O)/C(=C\c2ccc(O)c(OC)c2)N=C1C	11094	nt	8	-2	5	2.3	7
CCCCNC(=S)N(CCCN(C)C)Cc1cc2cc3c(cc2[nH]c1=O)OCO3	nt	-18	8	3	-12	3.3	8
CC1Cc2cc(/C(O)=C3/C(=O)C(=O)N(CCCn4ccnc4)C3c3ccc(Br)cc3)ccc2O1 (configuration not stated)	5782	-21	-3	1	-7	4.4	12
CCC1CCCCN1C(=O)CSc1nc2c([nH]c3ccccc32)c(=O)n1C (configuration not stated)	13019	-23	18	6	-14	8.7	-21
O=C(COc1ccc(S(=O)(=O)N2CCCCC2)cc1)NCc1cccnc1	22072*	-20	3	12	-8	2.2	4

Reprinted at random: 5 compounds from above
SMILES	Bead autofluor	PrP 5UTR inh	Mtb hypoxia inh	Mtb hypoxia inh growth	BJeLR viability	Sa RN4220 lethal	ugtP null kill
COc1ccccc1Nc1nc(-c2cccc(N3C(=O)c4ccccc4C3=O)c2)cs1	2357	-10	8	11	6	9.1	13
O=C(O)c1cccc(-c2ccc(C=NNC(=O)C3COc4ccccc4O3)o2)c1 (configuration not stated)	nt	nt	-7	-13	nt	4.6	2
O=C(Cn1cccc1C(=O)c1ccccc1)NCCN1CCOCC1	2533	-18	4	12	-2	1.3	-5
COC(=O)C1=C(O)/C(=C\c2ccc(O)c(OC)c2)N=C1C	11094	nt	8	-2	5	2.3	7
CCC1CCCCN1C(=O)CSc1nc2c([nH]c3ccccc32)c(=O)n1C (configuration not stated)	13019	-23	18	6	-14	8.7	-21

Additional entries
SMILES	Bead autofluor	PrP 5UTR inh	Mtb hypoxia inh	Mtb hypoxia inh growth	BJeLR viability	Sa RN4220 lethal	ugtP null kill
COc1ccc(NC(=O)C2CCCN(C(=O)c3ccc(Cl)cc3)C2)cc1S(=O)(=O)N(C)C (configuration not stated)	8291	-18	9	1	nt	2.6	6
CNC(=O)C1CC(=O)N/C(=N/N=C(C)c2cccs2)S1 (configuration not stated)	nt	nt	11	9	nt	4.2	-13
COc1ccc(COc2ccsc2C(=O)Nc2ccc(Cl)cc2)cc1	19044*	-15	-1	3	6	-1.4	-4
Cc1cccc(OCCCC(=O)Nc2ccc(S(=O)(=O)Nc3ncccn3)cc2)c1C	5596	-30	10	8	4	1.5	5
Cc1ccc(C)c(NC(=O)CSc2nc(=O)n(CCN3CCOCC3)c3c2CCCC3)c1	?	-15	2	1	2	3.7	7
CN(C)C(=O)COC(=O)c1cccc(CN2C(=O)c3ccccc3C2=O)c1	4818	-22	2	8	4	2.3	1
CC(=O)c1c(C)nc2ccccc2c1N	2234	2	nt	nt	-7	8.3	0
O=C(CCNS(=O)(=O)c1ccccc1)N1CCN(c2ccccc2F)CC1	6212	1	4	9	6	1.2	1
CC(=O)C1=C(C)N(Cc2ccccc2)C(=O)NC1c1ccco1 (configuration not stated)	nt	nt	0	0	nt	0.7	0
CSc1cccc(NS(=O)(=O)c2ccccc2)c1	3207	-21	8	3	4	6.7	-10
COc1cc(C(=O)N2CCN(S(=O)(=O)c3ccc(F)cc3)CC2)cc(OC)c1OC	8684	-28	-3	4	-3	2.0	3
CCOC(=O)c1ccc(NC(=O)COc2ccc(S(=O)(=O)NC(C)C)cc2)cc1	10136	-15	-4	12	2	5.4	-1
Cc1ccc(C(=O)NCCc2nnc3ccc(SCC(=O)Nc4cc(C)on4)nn23)cc1	3381	-5	2	0	8	3.2	4
CCCOc1ccc(C=NNC(=O)C(C)Sc2ccccn2)cc1OCC (configuration not stated)	nt	nt	-4	-1	nt	0.5	-6
Cc1cccc(OCC(=O)N(Cc2cccs2)C2CCS(=O)(=O)C2)c1C (configuration not stated)	6817	-11	0	-2	7	2.8	4
C[C@]12CCC3C(CC[C@H]4C[C@H](OC(=O)c5cccnc5)CC[C@]34C)C1CCC2=O (some centres not stated)	4301	0	-4	8	nt	3.5	1
Cc1ccc2nnc(Cl)n2n1	4687	-10	nt	nt	8	2.0	6
N#C/C(=C/c1ccc(-c2ccc([N+](=O)[O-])cc2)o1)C(=O)Nc1nc(-c2cccs2)cs1	3111	-12	-1	1	nt	3.7	-8
CCOC(=O)Cc1csc(NC(=S)NC(=O)CC(C)C)n1	2598	-28	1	6	4	-2.7	0
